Screening data (PubChem BioAssay)
ugtP null kill – growth inhibition of ugtP-null S. aureus, primary screen, RN4220 ugtP deletion, OD600; 16 h; some inactives read as strong as hits; 0.54% of 330,000 active; growth inhibition, % (no concentration beside the values);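 active = z-score under -3 and OD600 up to 0.15 on both plates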;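 note: plate controls were untreated wells for no effect and antibiotic for full effect; wells of about 80 µL received 100 nL stock; the first replicate is given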
RN4220 kill – growth inhibition of S. aureus RN4220, primary screen, OD600; AID 1259311, 2017; inhibition, % (concentration not given with the values); 16 h; 0.33% of 330,000 active;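 active = z-score of -3 or lower and OD600 up to 0.18 on both plates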;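 note: plate controls were untreated cells for no effect and reference antibiotic for full effect; stock transfer was 100 nL into about 80 µL; one replicate is shown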
PrP UTR inh – inhibition of PrP 5' UTR reporter expression; cell-based PrP 5' UTR mRNA reporter, plate reader; inhibition, % (concentration not given with the values); 0.35% of 340,000 active;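 active = every replicate at 50% or more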;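 note: 0 = median of the neutral control wells; tested in H4 reporter cells; numbers are from one replicate; inactives centre near -14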
BJeLR viability – MLPCN primary cell-based screen for lethality selective to Ras in HRASV12 cells; 0.17% of 300,000 active; BJeLR (HRASV12) viability, CellTiter-Glo ATP luminescence, 48 h; reference of the scale not given here; inhibition, % (no concentration beside the values);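 active = replicate mean above 50%; inconclusive = above 50% but judged a plate artefact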;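 note: 50 nL library stock added to about 25 µL; numbers are from one replicate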
Mtb hypoxia inh – PubChem AID 1159583 | M. tuberculosis hypoxia-regulated fluorescent reporter, fluorescence | fluorescence inhibition, % (test concentration not listed) | 0.1% of 300,000 active;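 active = 35 to 45% if threefold the growth effect, above 45% if 1.5-fold the growth effect; inactive = the rest, general growth blockers included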;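 note: wells of about 50 µL received 100 nL stock; 0% = vehicle wells and 100% = reference inhibitor wells; whole bacteria with a GFP reporter of the hypoxia response; strong numbers were not always called active; many hits fall short of the cut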
Bead autofluor – counter-screen for toxin protease inhibitors: compound fluorescence. compound autofluorescence counterscreen, microsphere flow cytometry; active compounds read high. fluorescence intensity (no concentration beside the values). 3.1% of 360,000 active;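 active = at least 3 SD above the mean of all compounds, about 16000 in these data; inconclusive = too few beads counted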;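 note: 100 nL of 1 mM stock went into each well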
Mtb hypoxia inh growth – second read-out of Mtb hypoxia inh, no call of its own (marks repeat the call); growth inhibition, %; measured here: M. tuberculosis growth (absorbance);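 0% = vehicle and 100% = reference antibiotic; read after six days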
Starred values were filed as active, the others as inactive; & = joins results of further samples.

Cc1nc(SCC(=O)NC(=O)NCc2ccccc2)nc(C)c1C was read as ugtP null kill -0.5, RN4220 kill 5.6, PrP UTR inh -2.4, BJeLR viability -2.4, Mtb hypoxia inh 8.7, Bead autofluor 3890 and Mtb hypoxia inh growth 5.8.
Screening CC(=O)OC1C2CCCC1C(N1CCCC1)CC2 (centres undefined) returned ugtP null kill -9.2&7.4, RN4220 kill -2.6&-0.1, PrP UTR inh -26.1&-6.2, BJeLR viability 1.5&2.9 and Bead autofluor 4752&2415.
Screening CCC(OC(=O)c1ccco1)C(=O)NCc1ccc(OC)cc1 (centres undefined) returned ugtP null kill 0.0, RN4220 kill 0.5, PrP UTR inh -14.3, BJeLR viability -17.9, Mtb hypoxia inh 2.4, Bead autofluor 3672 and Mtb hypoxia inh growth 5.6.
`COCCN1Cc2cccc(C(=O)NCc3ccccn3)c2C1=O` gave ugtP null kill -4.3, RN4220 kill -6.1, PrP UTR inh -18.9, BJeLR viability -3.1, Mtb hypoxia inh 5.8, Bead autofluor 5673 and Mtb hypoxia inh growth 4.7.
`COc1ccccc1Nc1nc(N)nc(CSc2nccn2C)n1` gave ugtP null kill 5.4, RN4220 kill 6.4, PrP UTR inh -4.8, BJeLR viability -4.1, Mtb hypoxia inh 9.2, Bead autofluor 2587 and Mtb hypoxia inh growth -1.3.
For Cc1cc(C)c(S(=O)(=O)N2CCCC(C(=O)NC3CC3)C2)c(C)c1 (centres undefined) the results were ugtP null kill 0.2, RN4220 kill -0.9, PrP UTR inh -15.0, BJeLR viability 2.7, Mtb hypoxia inh 1.5, Bead autofluor inconclusive and Mtb hypoxia inh growth -4.6.
For CCCCn1nnnc1SCC(=O)c1ccc(C)c(C)c1 the results were ugtP null kill -0.2, RN4220 kill 4.7, PrP UTR inh -8.1, BJeLR viability 9.3 and Bead autofluor 2684.
For Cc1ccc2nc(-c3ccccc3)c(-c3ccccc3)nc2c1 the results were ugtP null kill 18.4, RN4220 kill 3.8, PrP UTR inh -5.0, BJeLR viability -11.6, Mtb hypoxia inh 8.2, Bead autofluor 4445 and Mtb hypoxia inh growth 5.9.
Screening CC(NC(=O)COc1cccnc1[N+](=O)[O-])c1ccc(Cl)cc1 (centres undefined) returned ugtP null kill -2.8, RN4220 kill 2.7, PrP UTR inh -10.7, BJeLR viability 0.6, Mtb hypoxia inh -0.3, Bead autofluor 5635 and Mtb hypoxia inh growth 7.6.
CC[C@@]12C(=O)N(c3cccc(Cl)c3)C(=O)N1[C@H](c1cccc(C)c1)[C@@H]1C(=O)N(Cc3ccccc3)C(=O)[C@@H]12 was read as PrP UTR inh -9.5, BJeLR viability -0.1 and Bead autofluor 2908.
For COc1cccc(NC(=O)C(=O)NCC2CCCN2S(=O)(=O)c2ccccc2)c1 (centres undefined) the results were ugtP null kill 5.3, RN4220 kill 2.9, PrP UTR inh -61.0, BJeLR viability 7.9, Mtb hypoxia inh 5.8, Bead autofluor inconclusive and Mtb hypoxia inh growth 0.5.
For O=C(c1ccc([N+](=O)[O-])cc1)N(Cc1ccc(Br)cc1)N1C(=O)CCCC1=O the results were ugtP null kill 1.6, RN4220 kill 3.4, PrP UTR inh -11.7, BJeLR viability -8.5, Mtb hypoxia inh 7.8, Bead autofluor 15877 and Mtb hypoxia inh growth 6.8.
CCOC(=O)c1cccnc1SCc1cc(=O)n2ccccc2n1 was read as ugtP null kill 5.4, RN4220 kill 2.9, PrP UTR inh -28.2, BJeLR viability 1.0, Mtb hypoxia inh -3.9, Bead autofluor 7574 and Mtb hypoxia inh growth 1.0.
CCCCCC1CN(Cc2ccccc2)C(=O)C1CC(=O)NCc1ccc(OC)cc1 (centres undefined) was read as ugtP null kill -16.3, RN4220 kill 2.9, Mtb hypoxia inh 7.8 and Mtb hypoxia inh growth 6.3.
For CSc1nc2ccc(NC(=O)C3CC(=O)N(Cc4ccco4)C3)cc2s1 (centres undefined) the results were ugtP null kill -0.6, RN4220 kill -0.8, PrP UTR inh -12.2, BJeLR viability -0.2 and Bead autofluor 3568.
CN(C)N1C(N)=C(C#N)C(c2ccc3c(c2)OCO3)C2=C1CC(C)(C)CC2=O (centres undefined) was read as ugtP null kill 2.4, RN4220 kill 2.8, PrP UTR inh 1.1, BJeLR viability 4.8, Mtb hypoxia inh 18.2, Bead autofluor 3995 and Mtb hypoxia inh growth 5.1.
CCS(=O)(=O)c1ccc2oc(SCC(=O)c3c(N)n(C4CC4)c(=O)[nH]c3=O)nc2c1 was read as ugtP null kill -1.5, RN4220 kill 2.8, PrP UTR inh -12.0, Mtb hypoxia inh -3.2, Bead autofluor 3929 and Mtb hypoxia inh growth -6.9.
O=C(NN=CC1CC=CCC1)c1cc(Br)ccc1O (centres undefined) was read as ugtP null kill 9.2, RN4220 kill 4.3, Mtb hypoxia inh 8.0 and Mtb hypoxia inh growth 7.5.
Screening COc1ccc(C(C)NC(=O)c2cccc([N+](=O)[O-])c2)cc1OC (centres undefined) returned ugtP null kill 4.6, RN4220 kill -1.4, PrP UTR inh -21.3, BJeLR viability 9.7, Mtb hypoxia inh -0.9, Bead autofluor 9992 and Mtb hypoxia inh growth 13.8.
O=C(Nc1cc(Cl)ccc1N1CCOCC1)C1CC1 was read as ugtP null kill 5.7, RN4220 kill 5.4, PrP UTR inh -2.4, Mtb hypoxia inh 5.7, Bead autofluor 2807 and Mtb hypoxia inh growth 1.6.
Cc1ccccc1C(=O)N1CCC(C(=O)OCc2ccccc2Cl)CC1 was read as ugtP null kill 7.0, RN4220 kill 3.2, PrP UTR inh -16.6, Mtb hypoxia inh 5.8, Bead autofluor 3962 and Mtb hypoxia inh growth 5.8.
For COCc1cc(=O)n2[nH]c(C(F)(F)F)nc2n1 the results were ugtP null kill 2.3, RN4220 kill 4.0, PrP UTR inh -42.3, BJeLR viability 11.8, Mtb hypoxia inh 8.5, Bead autofluor 2982 and Mtb hypoxia inh growth 4.9.
CC(C)OCCCNC(=O)c1c(N)n(/N=C/c2cccs2)c2nc3ccccc3nc12 was read as PrP UTR inh -8.7, BJeLR viability -6.7 and Bead autofluor inconclusive.
Screening CN(C(=O)c1ccc(NC(=O)C2CCCN(C(=O)OC(C)(C)C)C2)cc1)C1CC1 (centres undefined) returned ugtP null kill 2.0, RN4220 kill 7.1, PrP UTR inh -8.6, Mtb hypoxia inh 16.6, Bead autofluor 4128 and Mtb hypoxia inh growth 4.0.
For CCOC(=O)CSc1ncnc2c1nnn2-c1ccc(F)cc1 the results were ugtP null kill 15.5, RN4220 kill 7.8, PrP UTR inh -4.8, BJeLR viability -1.8, Mtb hypoxia inh 9.4, Bead autofluor 2672 and Mtb hypoxia inh growth 4.7.
OCC1=CC(O)C2C=COC(OC3OC(CO)C(O)C(O)C3O)C12 (centres undefined) was read as ugtP null kill 1.3, RN4220 kill 4.5, Mtb hypoxia inh 8.0 and Mtb hypoxia inh growth 4.9.
`COc1ccc(CN2C(=S)NC(C)(C)CC2(C)O)cc1` (centres undefined) gave ugtP null kill 6.0, RN4220 kill 1.4, PrP UTR inh -5.4, BJeLR viability 9.8, Mtb hypoxia inh 13.1, Bead autofluor 2226 and Mtb hypoxia inh growth 1.9.
O=C(NCc1ccccc1)C1CCN(S(=O)(=O)c2cccc3cccnc23)CC1 was read as ugtP null kill 1.6, RN4220 kill -0.6, PrP UTR inh -6.0 and Bead autofluor 3789.
`COCCn1c(SCC(=O)NC2(C#N)CCCCC2)nc2ccccc2c1=O` gave ugtP null kill 1.4, RN4220 kill 3.2, PrP UTR inh -6.7, Mtb hypoxia inh 4.3, Bead autofluor 6186 and Mtb hypoxia inh growth 9.5.
Screening Cc1ccc(C(c2sc3nc(C)nn3c2O)N2CCN(C(=O)c3ccco3)CC2)cc1 (centres undefined) returned ugtP null kill -0.2, RN4220 kill 0.5, PrP UTR inh -17.5, BJeLR viability 1.4, Mtb hypoxia inh -2.9, Bead autofluor 9517 and Mtb hypoxia inh growth 6.5.
For CNc1cc(C)nc(-n2nc(C)cc2C)n1 the results were ugtP null kill 2.8, RN4220 kill -0.3, PrP UTR inh -16.3, BJeLR viability -1.7 and Bead autofluor 2516.
`COCCCn1c(SCC(=O)Nc2nc3ccccc3s2)nnc1-c1ccoc1C` gave ugtP null kill -5.0, RN4220 kill 2.5, PrP UTR inh -14.0, BJeLR viability -4.9, Mtb hypoxia inh 4.5, Bead autofluor 9629 and Mtb hypoxia inh growth 0.2.
Screening COc1ccc(N2CCN(C(=O)COC(=O)c3ccc(OC(F)F)cc3)CC2)cc1 returned ugtP null kill 6.2, RN4220 kill 3.9, PrP UTR inh -7.2, Mtb hypoxia inh 8.1, Bead autofluor 6299 and Mtb hypoxia inh growth 4.2.
For Cc1cc(C)cc(NC(=S)Nc2ccccn2)c1 the results were ugtP null kill -8.0, RN4220 kill -4.1, PrP UTR inh -12.0, BJeLR viability -14.2, Mtb hypoxia inh 1.8, Bead autofluor 2318 and Mtb hypoxia inh growth 5.3.
Screening CC(C)[C@H](NC(=O)N1c2ccccc2NC(=O)[C@@H]1C(C)C)C(=O)N1CCC(C(=O)O)CC1 returned ugtP null kill -6.1, RN4220 kill -0.4, PrP UTR inh -33.3, BJeLR viability -3.9 and Bead autofluor 5510.
CCc1ccc(NC(=O)C(C)OC(=O)c2ccc(NS(=O)(=O)c3ccc(C)c([N+](=O)[O-])c3)cc2)cc1 (centres undefined) was read as ugtP null kill -17.6, RN4220 kill -11.2, PrP UTR inh -16.5, BJeLR viability -8.7, Mtb hypoxia inh -1.9, Bead autofluor 7201 and Mtb hypoxia inh growth -2.1.

Quoted at random: five compounds from above
`COCCCn1c(SCC(=O)Nc2nc3ccccc3s2)nnc1-c1ccoc1C` gave ugtP null kill -5.0, RN4220 kill 2.5, PrP UTR inh -14.0, BJeLR viability -4.9, Mtb hypoxia inh 4.5, Bead autofluor 9629 and Mtb hypoxia inh growth 0.2.
For CNc1cc(C)nc(-n2nc(C)cc2C)n1 the results were ugtP null kill 2.8, RN4220 kill -0.3, PrP UTR inh -16.3, BJeLR viability -1.7 and Bead autofluor 2516.
OCC1=CC(O)C2C=COC(OC3OC(CO)C(O)C(O)C3O)C12 (centres undefined) was read as ugtP null kill 1.3, RN4220 kill 4.5, Mtb hypoxia inh 8.0 and Mtb hypoxia inh growth 4.9.
Screening COc1ccc(N2CCN(C(=O)COC(=O)c3ccc(OC(F)F)cc3)CC2)cc1 returned ugtP null kill 6.2, RN4220 kill 3.9, PrP UTR inh -7.2, Mtb hypoxia inh 8.1, Bead autofluor 6299 and Mtb hypoxia inh growth 4.2.
CCc1ccc(NC(=O)C(C)OC(=O)c2ccc(NS(=O)(=O)c3ccc(C)c([N+](=O)[O-])c3)cc2)cc1 (centres undefined) was read as ugtP null kill -17.6, RN4220 kill -11.2, PrP UTR inh -16.5, BJeLR viability -8.7, Mtb hypoxia inh -1.9, Bead autofluor 7201 and Mtb hypoxia inh growth -2.1.

Going on with the list.
`CC1CN(O)C2CCc3nonc3C12O` (centres undefined) gave PrP UTR inh -3.5, BJeLR viability -0.5 and Bead autofluor 3312.
Screening Cc1ccc(NC(=O)/C=C/c2ccc3c(c2)OCO3)nc1 returned ugtP null kill -0.3, RN4220 kill 5.0, PrP UTR inh -112.9, BJeLR viability -1.3, Mtb hypoxia inh 10.7, Bead autofluor 2488 and Mtb hypoxia inh growth 0.1.
Cc1cc(C(=O)N/N=C/c2ccc(N3CCOCC3)cc2)c(C)o1 was read as PrP UTR inh -33.6, BJeLR viability 8.2 and Bead autofluor 5134.
COc1ccc(/C=C/C(=O)Nc2ccc3c(c2)CCC3)cc1OC was read as ugtP null kill 2.7, RN4220 kill -2.2, PrP UTR inh -37.9, BJeLR viability -9.6, Mtb hypoxia inh 9.1, Bead autofluor 1873 and Mtb hypoxia inh growth 8.9.
Screening COc1cccc(-c2nnc(NC(=O)c3ccc4ncsc4c3)o2)c1 returned ugtP null kill 9.7, RN4220 kill 38.5, PrP UTR inh -29.6, BJeLR viability 5.1, Mtb hypoxia inh 11.5, Bead autofluor 2591 and Mtb hypoxia inh growth 3.6.
